GLA inh pH 4.5: alpha-galactosidase A (human) inhibition, pH 4.5 | P06280 | purified enzyme, 4-MU-alpha-Gal fluorescence, pH 4.5 | activity change, negative = inhibition, % at 105 µM | 230,000 tested, under 10 active | AID 1467; inconclusive = small, poorly fitted or top-dose-only inhibition, or a rising curve; inactive = flat fitted curve, though single readings scatter; no compound was filed as active;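 also: 0% = full activity with enzyme and -100% = basal without enzyme; dose as in the result columns while the protocol names 77 µM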
Target sequence (P06280 whole entry, looked up): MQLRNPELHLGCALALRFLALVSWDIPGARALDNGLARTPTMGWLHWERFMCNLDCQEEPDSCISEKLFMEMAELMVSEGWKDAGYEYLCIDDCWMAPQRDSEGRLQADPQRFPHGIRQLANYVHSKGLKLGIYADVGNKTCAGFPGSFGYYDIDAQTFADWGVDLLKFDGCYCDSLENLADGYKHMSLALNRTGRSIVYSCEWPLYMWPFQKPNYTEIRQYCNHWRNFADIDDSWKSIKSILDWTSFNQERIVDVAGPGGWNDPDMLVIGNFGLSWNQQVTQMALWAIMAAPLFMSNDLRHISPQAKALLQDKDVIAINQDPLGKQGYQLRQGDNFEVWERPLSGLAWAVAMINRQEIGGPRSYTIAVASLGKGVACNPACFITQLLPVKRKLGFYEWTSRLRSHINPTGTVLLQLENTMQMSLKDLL
Rango-impB inh: Rango-importin beta binding inhibition; Rango CFP/YFP FRET sensor + importin beta, 45 min; Potency, µM (highest dose often 92.2 µM), inactives show at the top dose inhibition of complex formation; 340,000 compounds, 0.031% hits; active = rising FRET ratio curve, often small or poorly fitted; inconclusive = mostly compound fluorescence or quenching in the first reads; inactive = flat curves in all reads;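 also: potency is read from the fitted curve at half-maximal effect; 0% = DMSO wells and 100% = buffer wells lacking importin beta; nearly all actives have a fitted effect of over 15% in size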
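FRET biosensor Rango (snurportin 1 IBB between N-terminal EYFP and C-terminal Cerulean), 50 nM in PBS/1 mM DTT/0.02% Tween-20/0.1% BSA, preincubated 5 min RT with compound; 0.125 microM importin beta added, 45 min RT, CFP/YFP FRET ratio read.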
miR-21 FLuc: raises the signal of a miR-21 reporter | HeLa miR-21 FLuc reporter, luciferase, 48 h | Potency, µM (top dose mostly 38.3 µM), for the others: top-dose reporter change, positive = more light | 340,000 tested, under 10 active | AID 2288; active = well fitted rising curve with a large enough effect; inconclusive = small, poorly fitted or top-dose-only effect; inactive = no such curve, though single readings can be large or run the other way;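 also: % of control where 0% means no effect; miR-21 action dims this reporter so a rising signal means less miR-21 action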
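Compounds were titrated across several concentrations (up to approximately 40 uM) and incubated 48 hours with HeLa miR-21-FLuc reporter cells (miR-21 target sequence downstream of FLuc, endogenous miR-21). Readout was firefly luciferase luminescence after lytic detection reagent.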
Rango dissoc inh: inhibition of RanGTP-driven Rango-importin beta dissociation | Potency, µM (doses to about 46.1 µM), without a hit: at the top dose activity change, negative = inhibition | Biochemical FRET Rango-importin beta, RanGTP-induced dissociation | 340,000 compounds, 0.071% hits | AID 540253 | O95149+P62826; active means falling FRET ratio curve, often poorly fitted, with flat reads before Ran was added; inconclusive means other falling curves, or compound fluorescence or quenching; inactive means flat or rising ratio curve;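 also: potency is read from the fitted curve at half-maximal effect; % of control where 0% means no effect; nearly all actives have a fitted effect of over 45% in size; -100% = wells without RanGTP and RCC1; the record marks most hits as doubtful in a second field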
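Recombinant Rango FRET biosensor (EYFP–snurportin 1 IBB–cerulean CFP10) at 0.1 uM premixed with 0.25 uM importin beta in PBS, 1 mM DTT, 0.02% Tween-20, 0.1% BSA. Compound added 5 min; RanGTP-RCC1 (0.6 uM Ran, 2 mM GTP, 0.2 uM RCC1) then triggers release, read at 45 min.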
* hit, by the source's call; u = inconclusive; x = not tested or not shown; & = joins results of further samples. These rows are one share of the data; count on the stated rates, not on these rows.

Molecule	GLA inh pH 4.5	Rango-impB inh	miR-21 FLuc	Rango dissoc inh
COc1cccc(CN(C)S(=O)(=O)c2ccccc2Br)c1	x	-0.1%	x	-12%
COc1ccc(-c2noc(CSc3nc(N)cc(=O)[nH]3)n2)cc1	2	-4.2%	3%&2%	-15%
COc1ccc(C(=O)CCC(=O)N2CCN(c3ccccc3)CC2)cc1	x	-2.4%	2%	8%
CC[C@]12C(=O)N(C)C[C@H]([C@@H]3C(=O)N(Cc4ccccc4)C(=O)[C@@H]31)N2C(=O)c1ccccc1	x	0.1%	x	-14%
O=C1C=CC(=O)c2c(O)c(N3CCN(CCOCCO)CC3)c(Br)c(O)c21	x	u	x	-16%
COc1ccc(C(c2c[nH]c3ccccc23)c2c[nH]c3ccccc23)cc1O	-3	x	-16%	x
COc1ccc(C2/C(=C(/O)c3ccc(F)cc3)C(=O)C(=O)N2CCCN2CCOCC2)cc1OC (stereo not drawn)	x	-4.2%	-2%	-14%
COc1cc(/C=C/C(=O)O[C@H]2[C@H](O[C@@H]3O[C@@H](C)[C@H](O)[C@@H](O)[C@H]3O)[C@@H](O)[C@H](OCCc3ccc(O)c(OC)c3)O[C@@H]2CO)ccc1O	x	-3.9%	x	21%
COc1cc(C2C(N3C(=O)c4ccccc4C3=O)C(=O)N2c2ccc(C)c(C)c2)cc(OC)c1OC (stereo not drawn)	0	9.3%	1%	-1%
COC(=O)CSc1nnc(CNc2nc(-c3ccccc3)cs2)n1C	-3	u	-10%	3%
CS(=O)(=O)c1ccc2nc(NC(=O)CCNC(=O)c3ccc(Cl)cc3)sc2c1	x	0.2%	x	-1%
O=C(Nc1ccc(F)c(F)c1)c1ccc2c(c1)OCO2	0	5.1%	-25%	u
COc1cc(C(=O)NC(C)c2cnn(-c3ccccc3C)c2C)cc(OC)c1OC (stereo not drawn)	8	-4.1%	-3%	-3%
C/C(CC(=O)NC1CCCCC1)=N\NC(=O)c1ccccn1	-2	2.6%	-56%	1%
O=C1CC(c2ccc(Cl)cc2)CC(O)=C1C=NCc1ccc(Cl)c(Cl)c1 (stereo not drawn)	3	u	-3%	11%
CCCCCCC(C)OC(=O)Nc1cccc2ccccc12 (stereo not drawn)	-6	3.9%	-6%	1%
COc1ccc(OC)c(C2C=C(C34CC5CC(CC(C5)C3)C4)NC(=S)N2)c1 (stereo not drawn)	-1	0.8%	24%	18%
COc1ccc(NC(=O)C2CCCCC2)cc1S(=O)(=O)N1CCOCC1	x	1.7%	x	0%
COc1ccc(CCN2C(=O)C3C4C=CC(C4)C3C2=O)cc1OC (stereo not drawn)	-7	4.7%	-6%	-7%
O=C1C2C(c3ccccc3)C=CC(c3ccccc3)C2C(=O)N1c1ccccn1 (stereo not drawn)	-21	u	-5%	u
CC(=O)Oc1ccc2c3c(c(=O)oc2c1C)CCCC3	x	-3.0%	-2%	-21%
COc1ccccc1C(=O)NCCn1cc(SCC(=O)Nc2nnc(C)s2)c2ccccc21	-3	-6.0%	8%	-1%
COc1ccc(NC(=O)c2cc(S(=O)(=O)N3CCCC3)oc2C)cc1	1	0.2%	15%	-1%
CC(=O)c1cc(C#N)c(Oc2ccc(Cl)cc2Cl)nc1C	x	0.2%	x	-6%
Cc1ccsc1C1C(C#N)=C(N)OC2=C1C(=O)CCC2 (stereo not drawn)	8	0.0%	0%	-6%
COc1ccccc1CC(=O)N1CCN(c2ccccn2)CC1	6	0.6%	-1%	2%
COc1ccc(CNC(=O)CN(CC2CCCO2)C(=O)CNS(=O)(=O)c2ccccc2)cc1 (stereo not drawn)	2	0.7%	-3%	9%
O=C(CN1N=C(C(F)(F)F)CC1(O)c1ccc([N+](=O)[O-])cc1)c1ccccc1 (stereo not drawn)	-3	1.4%	1%	-7%
COC(=O)C1CCN(C(=O)C2CC(=O)N(c3ccc(C)c(Cl)c3)C2)CC1 (stereo not drawn)	x	-0.6%	x	-2%
COC(=O)CSc1nnc(-c2cnccn2)n1C	1	-7.1%	-8%	-8%
COc1cc(Cl)c(CNC[C@H]2O[C@@H](n3cnc4c(N)ncnc43)[C@H](O)[C@@H]2O)c(Cl)c1O	x	-0.3%	x	4%
COc1ccccc1CNc1nc(S(=O)(=O)c2ccccc2)c(Cl)s1	-7	-2.7%	-2%	-4%
C=CCOc1ccccc1CN1CCN(CCc2ccccc2)C(CCO)C1 (stereo not drawn)	x	-0.1%	2%	17%
CC1CC(C)C[N+](=C2C=C(N3CCCC3)CC(C)(C)C2)C1 (stereo not drawn)	9	-0.2%	u	-10%
COc1ccc2oc(C(=O)OCC(=O)NCc3ccc(OC)c(OC)c3)c(C)c2c1	x	-3.1%	x	4%
CN(C)c1ccc(CN(C(=O)c2ccc(Cl)c([N+](=O)[O-])c2)C2CCS(=O)(=O)C2)cc1 (stereo not drawn)	0	u	7%	-6%
Cc1cc(C(=O)Nc2ccncc2)c2ccccc2n1	x	6.0%	20%	-9%
Cc1cc(NC(=O)CS(=O)(=O)c2c[nH]c3ccccc23)no1	x	0.0%	0%	31%
CCC(=O)Nc1ccc(C(=O)NCCCn2ccnc2)cc1	4	-0.2%	-1%	1%
CCn1c(=S)[nH]c2scc(-c3cccs3)c2c1=O	6	-4.7%	-1%	16%
COc1ccc(-c2csc(Nc3ncccc3C)n2)cc1	3	-4.5%	-11%	-11%
O=C(CNC(=O)c1ccc(Cl)cc1Cl)OCC(=O)N1CCN(c2ccccc2)CC1	x	1.1%	2%	1%
Cc1nc2ccc(-c3nc4ccccc4o3)cc2[nH]1	0	-1.4%	-29%	29%
O=C(c1ccc(O)cc1)c1ccc(C(=O)c2ccc(O)cc2)cc1	-6&-2	-4.4%	14%&6%	0%
COC(=O)C1CSC(C(=O)OC)N1C(=O)Nc1ccc(Cl)cc1 (stereo not drawn)	-22	1.3%	-3%	1%
C=CCOC(=O)c1c(C)nc2cc3c(cc2c1C)OCO3	-7	-2.0%	-52%	5%
Cc1sc(N)nc1-c1ccc2c(c1)OCCO2	x	-0.5%	-29%	-2%
O=C(NC1CCCCC1)C(c1ccc(F)cc1)N(Cc1ccco1)C(=O)c1csnn1 (stereo not drawn)	x	u	1%	0%
COc1ccc(C)cc1NC(=O)CSc1nnc2ccc(-c3ccccn3)nn12	x	6.0%	x	27%
COc1cccc(OCc2cc(C(=O)N3CCN(C4CCCCC4)C(=O)C3)no2)c1	x	7.0%	-2%	u

The list goes on:
Molecule	GLA inh pH 4.5	Rango-impB inh	miR-21 FLuc	Rango dissoc inh
Cc1ccccc1CNC(=O)c1ccc(CSCc2ccccc2)cc1	-17	0.1%	2%	1%
CC(C)c1cc(-c2cc(C(=O)NCc3ccccc3)on2)nc(NCC2CC2)n1	0	1.7%	25%	20%
CCOC(=O)Cn1cnc2c(nnn2-c2cccc(OC)c2)c1=O	x	5.2%	-1%	14%
CC1(C)C2CCC(C2)C1(C)NC(=O)CNCC1CCCCC1 (stereo not drawn)	-2	-1.0%	2%	5%
Cc1cc(C)n(CCN(C)C(=O)C2CCC(=O)N(CCN3CCOCC3)C2)n1 (stereo not drawn)	x	-3.5%	-1%	4%
COc1ccccc1N(CC(=O)NC1CCCCC1C)S(=O)(=O)c1cccs1 (stereo not drawn)	x	-3.1%	x	0%
COc1ccc(CCNC(=O)C(=O)NCc2cccs2)cc1OC	6	-2.5%	22%	3%
CC(C)n1cc(NC(=O)COc2ccccc2Cl)cn1	x	-0.9%	-32%	11%
CC(=O)Nc1ccc(NC(=O)CSc2nc(N)c(NC(=O)c3ccco3)c(=O)[nH]2)cc1	x	1.3%	10%	5%
COc1ccc2[nH]c(C(=O)O)c(NC(=O)c3ccccc3[N+](=O)[O-])c2c1	-17	-1.8%	1%	-20%

4 structures from above, arranged by SMILES length, high to low:
Molecule	GLA inh pH 4.5	Rango-impB inh	miR-21 FLuc	Rango dissoc inh
COc1cc(/C=C/C(=O)O[C@H]2[C@H](O[C@@H]3O[C@@H](C)[C@H](O)[C@@H](O)[C@H]3O)[C@@H](O)[C@H](OCCc3ccc(O)c(OC)c3)O[C@@H]2CO)ccc1O	x	-3.9%	x	21%
C=CCOc1ccccc1CN1CCN(CCc2ccccc2)C(CCO)C1 (stereo not drawn)	x	-0.1%	2%	17%
C/C(CC(=O)NC1CCCCC1)=N\NC(=O)c1ccccn1	-2	2.6%	-56%	1%
Cc1cc(C(=O)Nc2ccncc2)c2ccccc2n1	x	6.0%	20%	-9%

(next part)
Molecule	GLA inh pH 4.5	Rango-impB inh	miR-21 FLuc	Rango dissoc inh
NC(=O)C1(N2CCCCC2)CCN(S(=O)(=O)c2ccccc2)CC1	x	-1.8%	x	-6%
O=C(N/N=C/c1cccc2ccccc12)C(=O)N1CCCC1	x	-0.1%	-1%	-2%
Cc1ccc(-c2nn(-c3ccccc3)cc2/C=N/n2c(-c3cccs3)n[nH]c2=S)cc1	-15	4.3%	-16%	-7%
O=C(CCS(=O)(=O)c1ccc(F)cc1)Nc1nnc(-c2cccs2)o1	x	-3.3%	x	6%
O=C(c1ccncc1)N1CCN(S(=O)(=O)c2cccc(C(F)(F)F)c2)CC1	x	5.0%	x	1%
CSCCC(NC(=O)c1ccco1)C(=O)NCc1ccc2c(c1)OCO2 (stereo not drawn)	x	1.8%	x	13%
Cc1ccc(C)c(-c2csc(Nc3ncccn3)n2)c1	x	-0.3%	0%	-14%
O=C(O)Cn1nnnc1SCC(=O)Nc1ccccc1F	8	-2.7%	0%	-12%
CC1CCCCN1Cc1c(O)ccc2c(=O)c(-c3nc4ccccc4s3)coc12 (stereo not drawn)	-6	u	-4%	u
CC(=O)c1cccc(OCC(=O)Nc2ccccc2N2CCOCC2)c1	x	-0.8%	x	-9%
COc1ccc([C@@H]2CC=C(C(=O)O)[C@H](c3ccc(F)cc3)N2S(=O)(=O)c2ccc(C)cc2)cc1OC	x	-0.3%	x	1%
CC(=O)c1cccc(NC(=O)C(C)OC(=O)c2cccc(-n3cnnn3)c2)c1 (stereo not drawn)	x	u	x	-4%
CCOc1[nH]n(-c2ccc(Cl)cc2)c(=O)c1C=Nc1ccc(Cl)cc1	-20	-0.6%	-4%	-2%
CCOc1ccc(OCCC(=O)OCC(=O)Nc2cc(C)nn2-c2ccccc2)cc1	x	0.8%	x	-12%
COc1cccc(CN2CCNC(=O)C2CC(=O)O)c1OC (stereo not drawn)	8	-2.7%	-9%	19%
CC(C)N(C(=O)CN1CCN(C(=O)C2COc3ccccc3O2)CC1)C(C)C (stereo not drawn)	x	-0.3%	x	-7%
CCc1c(O)nc(SCC(=O)Nc2ccccc2)n(-c2ccccc2)c1=O	1	0.2%	-8%	3%
CN1CCN(Cc2ccc(Sc3ccc(Cl)cc3)c([N+](=O)[O-])c2)CC1	-1	2.1%	5%	23%
Cc1onc(-c2ccccc2)c1C(=O)OCC(=O)Nc1ccccc1	x	-2.0%	x	11%
COc1ccc(C2C(C(=O)Nc3cccc(C)n3)CCC(=O)N2c2ccc(OC)cc2)cc1 (stereo not drawn)	-9	-3.1%	15%	4%
CCn1cc(S(=O)(=O)NC(C)c2cc(OC)ccc2OC)cn1 (stereo not drawn)	x	0.9%	0%	1%
O=C(O)c1ccc(S(=O)(=O)N2CCC(Cc3ccccc3)CC2)cc1	x	-2.5%	0%	2%
CN(C)CCOC1c2ccccc2CCc2ccc3ccccc3c21 (stereo not drawn)	x	2.8%	x	-2%
Cc1c(C(=N)C(C#N)C#N)c(=N)oc2c1ccc1ccccc12	-8	u	-38%	-6%
COc1ccc(Br)cc1C(=O)Nc1ccc(C(=O)O)cc1	-2	-1.0%	-13%	0%
O=C(CSc1nnc(SCc2cccc3ccccc23)s1)Nc1ccc(C(=O)O)cc1	1	-5.4%	-4%	1%
CCOc1ncccc1C(=O)OCC(=O)N1CCc2ccccc21	-9	-4.8%	-3%	32%

From PubChem
